Screening data deposited in PubChem BioAssay by several laboratories.
Rce1 inh: blocks yeast Ras-converting enzyme | yeast membranes, quenched prenylated peptide cleavage fluorescence | calls only | Q03530 | actives 0.27% (n = 290,000);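 active = fall in fluorescence gain of 50% or more versus controls, with final raw signal at or below 3038400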;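 also: plate controls were neutral control wells for no effect and wells lacking membranes for full effect; tested at 10 µM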
eIF4H inh: inhibitors of RNA binding by human eIF4H; eIF4H fluorescence polarization binding assay; inhibition, % at 35 µM; actives 0.94% (n = 290,000);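 active = 50% or more with normal probe brightness, or confirmed in later tests; about a fifth of its hits are not listed in these tables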;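 also: calls also rest on retests at 20 µM and on dose response follow-up; 0% = protein and probe with vehicle and 100% = probe without protein; strong numbers were not always called active; many hits fall short of the cut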
CSC inhib: blocks cancer stem cells. cancer stem cell-like cells viability, luminescence. inhibition, % at 7.5 µM. actives 1.1% (n = 300,000). AID 2717;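 active = mean at 75% or more and at least half the replicates too; tested in HMLE shEcad cells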;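 also: 0% = median of negative and 100% = median of positive control wells; the first replicate is given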
HIV Env fusion: inhibitors of HIV Env-mediated cell fusion | inhibition, % at 12.3 µM | HeLa-JRFL Env/CEM21 cell fusion, luciferase | actives 1.1% (n = 360,000);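 active = mean replicate inhibition score of at least 50 and every replicate individually at or above 50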;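 also: 0% = plate neutral controls and 100% = maraviroc near 300 nM; one replicate is shown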
PABP FP inh: blocks human PABP binding to poly(A) RNA. inhibition, % at 35 µM. AID 2014. actives 1% (n = 290,000). fluorescence polarization;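 active = 50% or more with normal probe brightness, or confirmed in later tests; about a fifth of its hits are not listed in these tables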;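 also: calls also rest on retests at 20 µM and on dose response follow-up; controls were probe without protein and protein plus probe with vehicle; some compounds called inactive have numbers as strong as hits; many hits fall short of the cut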
Target sequence (P11940 whole entry, looked up): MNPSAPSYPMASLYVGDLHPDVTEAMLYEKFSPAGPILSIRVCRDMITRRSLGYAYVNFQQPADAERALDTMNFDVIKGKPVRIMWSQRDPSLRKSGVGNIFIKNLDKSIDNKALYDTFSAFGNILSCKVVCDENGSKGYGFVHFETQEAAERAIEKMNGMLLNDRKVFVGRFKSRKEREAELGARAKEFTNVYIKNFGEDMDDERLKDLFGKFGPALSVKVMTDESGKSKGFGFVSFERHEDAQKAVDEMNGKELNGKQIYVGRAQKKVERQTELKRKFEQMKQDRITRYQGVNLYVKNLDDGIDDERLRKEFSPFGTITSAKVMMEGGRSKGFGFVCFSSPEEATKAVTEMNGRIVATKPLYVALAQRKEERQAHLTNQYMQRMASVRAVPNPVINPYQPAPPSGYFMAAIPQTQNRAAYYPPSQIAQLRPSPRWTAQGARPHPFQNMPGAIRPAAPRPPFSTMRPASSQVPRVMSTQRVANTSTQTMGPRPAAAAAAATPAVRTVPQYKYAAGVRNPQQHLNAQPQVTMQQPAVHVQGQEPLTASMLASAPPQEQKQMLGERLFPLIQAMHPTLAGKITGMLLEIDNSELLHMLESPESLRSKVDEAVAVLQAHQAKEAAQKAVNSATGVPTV
MT1-MMP act inh: MT1-MMP (human) activation inhibition. P50281. HT1080 RFP-PRO-GFP cells, GFP/RFP ratio fluorescence, overnight; percent of plate control window, DMSO zero. GFP/RFP ratio change, % at 20 µM. actives 0.061% (n = 360,000). AID 651647;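 active = GFP/RFP ratio change of at least 30% with cell ATP level not reduced by more than half and red fluorescence within 50% of control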; also: strong numbers were not always called active
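Test system: HT1080 RFP-PRO-GFP cells; Benchmarks: DMSO and RFP-L50D-GFP cell wells; Timing: cells overnight before dosing, compound overnight, 37 °C, 5% CO2; Compound: one 20 µM compound dose with 1% DMSO; Read-out: GFP/RFP fluorescence ratio.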
Yeast UUG start: modulators of start codon recognition fidelity in yeast; activity score, % at 18.7 µM; S. cerevisiae UUG-firefly luciferase reporter, luminescence/redox ratio; actives 0.13% (n = 350,000);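 active = replicate mean at a twofold rise or more, about +100% in these data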;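 also: firefly luciferase made from a UUG start codon reports start codon fidelity; reporter light over untreated wells divided by growth signal over untreated wells; some hits fall short of that in this replicate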
MT1-MMP act inh RFP: further read-out of MT1-MMP act inh, marked with its call; RFP signal change, %; measured here: RFP expression control read;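 0 = vehicle wells; hits needed this value within 50% of zero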
* hit, by the source's call; i = inactive; nt = not tested or not shown; + = active, no number; & = joins results of further samples; [ ] = remark or other dose.

SMILES	Rce1 inh	eIF4H inh	CSC inhib	HIV Env fusion	PABP FP inh	MT1-MMP act inh	MT1-MMP act inh RFP	Yeast UUG start
O=C(c1cc(N2C(=O)C3C4CCC(C4)C3C2=O)ccc1Cl)N1CCN(c2ccccc2F)CC1 (stereo not given)	i	-9.2	-9.7	23.4	6.9	-4.1	-12.1	nt
COc1ccc(CCNC(=O)C2CCN(S(=O)(=O)c3cccs3)CC2)cc1OC	i	-1.3	-2.2	-32.4	-16.9	-0.7	1.3	nt
CN(C)/C=C(\C#N)c1nc2ccccc2[nH]1	i	-4.1	-13.8	-25.8	6.9	2.1	2.1	7.4
CCn1c(SCc2ccccc2)nnc1-c1cccs1	i	-3.6	nt	26.5	-2.8	-3.7	-1.5	-9.4
COc1ccc(NC(=O)N(C)C[C@H]2Oc3c(NC(=O)Nc4ccc(C(F)(F)F)cc4)cccc3C(=O)N([C@H](C)CO)C[C@@H]2C)cc1	nt	nt	nt	0.8[16.7 µM]	nt	7.8	-3.9	37.0&9.2
CCOc1ccccc1NC(=O)c1sc2ncn(CC(=O)N3CCOCC3)c(=O)c2c1C	nt	-7.3	8.1	8.1	-3.3	4.1	-2.0	-4.7
COc1ccc(OC)c(-n2nnnc2SCC(=O)O)c1	i	-9.8	3.0	nt	33.0	2.7	7.8	-14.2
O=C(CN1C(=O)/C(=C/c2ccccc2)SC1=S)NC1CCS(=O)(=O)C1 (stereo not given)	i	nt	-2.7	-8.1	nt	5.8	3.4	5.9
Cc1ccc(OCC(=O)N2CCN(c3nnc(-c4ccccc4)c4ccccc34)CC2)cc1	nt	-2.2	-4.4	43.0	-30.7	-1.6	-11.1	-1.6
CCOc1ccc(NS(=O)(=O)c2ccc3[nH]cc(C(=O)N(CC)CC)c(=O)c3c2)cc1	nt	8.2	-3.6	nt	-8.6	5.6	4.9	-16.9
O=C1NC(=S)N/C1=C/c1cc2c(cc1[N+](=O)[O-])OCO2	i	13.6	7.4	16.4	6.8	-12.3	-5.8	-2.6
CC(C)(C)c1oc(C(=O)O)cc1CN1CCOCC1	i	2.6	-2.3	-33.0	7.1	-1.8	0.2	1.1
CCOC(=O)c1[nH]c2ccccc2c1NC(=O)c1ccc(Br)o1	i	0.8	nt	nt	-0.3	3.6	-6.3	9.8
Cc1ccc([C@@H]2CC=C(C(=O)O)[C@H](c3ccccc3)N2S(=O)(=O)c2ccc(C)cc2)cc1	nt	nt	-2.3	20.5	nt	2.6	5.0	0.4
CCCCCCCCN1[C@@H](CC(=O)OC)c2cc(F)ccc2S1(=O)=O	i	nt	4.7	18.7	nt	3.7	-7.1	0.9
O=C(c1ccc(-c2nnc(Nc3ccccc3)c3ccccc23)cc1)N1C[C@H]2C[C@H](C1)c1cccc(=O)n1C2	i	-8.0	-13.1	nt	-7.0	2.7	5.5	-16.7
CC(C)n1ncc2c(C(=O)Nc3ccccc3SCC(N)=O)cc(C3CC3)nc21	nt	nt	nt	18.4	nt	3.2	5.9	-14.2
COc1cc(/C=C/C(=O)N2c3ccccc3Sc3ccc(C(F)(F)F)cc32)cc(OC)c1OC	i	-10.2	34.2	nt	1.8	-7.6	-8.7	nt
Cc1ccc(C)c(NC(=O)C(Sc2nncn2C)c2ccccc2)c1 (stereo not given)	i	-9.8	nt	-40.7	9.3	1.2	4.4	-16.0
Cc1ccc(N)c(C(=O)CCCCC(=O)O)c1	i	-0.7	-3.8	-246.8	2.8	9.8	6.0	-9.6
O=C(COC(=O)c1ccccc1O)Nc1ccc(S(=O)(=O)N2CCCCC2)cc1	i	2.5	-8.7	-7.9	-2.9	1.8	-1.1	-9.8
Cc1ccc(NC(=O)c2ccc3c(c2)C(=O)N(Cc2cccnc2)C3=O)c(C)c1	i	3.5	-13.4	-7.5	-6.2	1.7	1.2	nt
O=C(NCc1ccco1)c1csc(Nc2ccccc2Cl)n1	i	5.0	11.4	-1.4	4.9	2.2	3.7	-14.2
CC1Cc2ccccc2N1C(=O)CSc1nncn1C (stereo not given)	i	-5.2	-7.9	-13.2	-7.6	4.6	5.3	-8.8
COCCNC(=O)/C(C#N)=C/c1cccc(OCc2ccccc2)c1	i	2.7	12.3	-18.7	3.3	1.1	7.5	nt
COc1cc([N+](=O)[O-])ccc1NC(=O)NCCCN1CCCC1=O	i	2.0	-3.4	16.3	2.0	-1.1	1.5	-16.1
COc1ccc(C(=O)Cn2nnc(-c3ccccc3-n3cnnn3)n2)cc1	i	-3.4	-2.5	nt	-3.2	19.0	49.6	-15.1
COc1cc(NC(=S)N2CCN(c3ccccn3)CC2)cc(OC)c1OC	i	-6.1	-11.4	2.2	0.6	0.0	-2.3	nt
Cc1ccc(/C=C/C(=O)Nc2ncc(C)s2)o1	i	38.1	6.8	-71.1	-7.2	-1.4	11.3	nt
COCCNC(=O)c1ccccc1NC(=O)c1ccccc1N(C)S(=O)(=O)c1ccccc1	i	1.1	11.8	nt	-0.1	-2.0	3.0	-8.7
NC1=NC(=O)/C(=C/c2ccccc2OS(=O)(=O)c2ccccc2)S1	i	-15.6	-3.9	33.2	0.3	2.5	-0.3	-18.0
CC(C)C(=O)Nc1ccc(N2CCN(c3ccc(F)cc3)CC2)cc1	i	1.2	-2.1	-8.3	4.3	4.0	3.6	nt
CC(C)NC(=O)N1c2ccccc2Sc2ccccc21	i	-3.3	-6.9	5.1	-9.0	1.1	-0.3	-16.0
O=C(COC(=O)c1ccccc1Nc1ccc(SC(F)F)cc1)NC1CC1	i	-10.2	45.4	-28.6	25.6	0.0	-0.7	nt
O=C1CC2(CC(c3ccc(Cl)cc3)=NO2)C(=O)N1c1ccccc1 (stereo not given)	i	14.8	-6.6	-2.5	14.6	1.3	3.6	5.0
CCOn1c(=O)c(-c2ccc(OC)c(OC)c2)[n+]([O-])c2ccccc21	i	1.7	-3.4	19.6	17.7	9.8	5.9	3.4
COc1cccc2c(=O)cc(C)n(CC(=O)Nc3ccc(C)c(C)c3)c12	i	8.3	6.2	nt	28.5	0.5	-20.9	-9.5
Cc1ccc(S(=O)(=O)N2CCN(C(=O)COC(=O)COc3ccc(Cl)c(C)c3)CC2)c(C)c1	nt	nt	nt	4.6	nt	5.5	1.1	-12.1
COc1ccc2[nH]c(C)cc(=O)c2c1	i	-3.2	-1.2	nt	8.4	3.3	2.5	-3.3
O=C(O)c1cc(-c2ccc(N3CCOCC3)cc2)nn1-c1ccc(F)cc1F	+	-13.3	-2.7	18.6	-4.9	2.1	4.4	nt
CCC(=O)Nc1cccc(-c2cn3ccccc3n2)c1	i	7.0	-4.2	-25.2	-2.8	7.5	6.7	nt
COc1ccc(CCNS(=O)(=O)c2cccc(C)c2)cc1OC	i	1.9	-6.7	7.1	0.0	0.8	4.5	-7.1
O=C(C(=O)N1CCc2ccccc2C1)N1CCc2ccccc2C1	i	-10.7	-11.7	-75.1	4.8	nt	nt	nt
Cc1cc(N2CCC(C)CC2)nc2cccc(O)c12	i	-4.3	21.5	-3.5	-3.3	-0.7	-6.6	-5.4
COc1ccc(CCNC(=O)CSc2nc(O)c(CC(C)C)c(=O)[nH]2)cc1OC	i	1.6	-17.5	nt	-0.7	-1.2	-1.8	0.4
CCOC(=O)c1c(NC(=O)C2CCCN(S(=O)(=O)c3ccccc3)C2)sc2c1CCCC2 (stereo not given)	i	-5.8	18.4	49.1	3.4	-5.3	-16.2	-17.4
COc1ccc(NC(=O)CSC2=NCCN2)cc1	i	-0.3	5.8	-3.6	-17.2	3.7	5.9	nt
COc1cc(SC)ccc1C(=O)NCCOc1ccc(F)cc1	i	-5.8	-14.4	-45.7	-1.5	-0.6	2.1	nt
Cc1ccc(C(=O)CC(C(=O)O)n2cncn2)cc1 (stereo not given)	i	-7.4	nt	-2.7	-0.2	-4.6	-0.8	-14.1
CCOc1ccccc1NC(=O)CSC1=C(C#N)C(c2ccco2)C(C(=O)Nc2nc3ccccc3s2)=C(C)N1 (stereo not given)	i	21.8	0.7	-0.8	8.6	-8.9	-11.5	nt

Some of the entries above, set out differently.
Values run as follows: Rce1 inh | eIF4H inh | CSC inhib | HIV Env fusion | PABP FP inh | MT1-MMP act inh | MT1-MMP act inh RFP | Yeast UUG start
COc1ccc(CCNC(=O)C2CCN(S(=O)(=O)c3cccs3)CC2)cc1OC
→ i | -1.3 | -2.2 | -32.4 | -16.9 | -0.7 | 1.3 | nt
O=C(c1ccc(-c2nnc(Nc3ccccc3)c3ccccc23)cc1)N1C[C@H]2C[C@H](C1)c1cccc(=O)n1C2
→ i | -8.0 | -13.1 | nt | -7.0 | 2.7 | 5.5 | -16.7
CN(C)/C=C(\C#N)c1nc2ccccc2[nH]1
→ i | -4.1 | -13.8 | -25.8 | 6.9 | 2.1 | 2.1 | 7.4

Carrying on.
SMILES	Rce1 inh	eIF4H inh	CSC inhib	HIV Env fusion	PABP FP inh	MT1-MMP act inh	MT1-MMP act inh RFP	Yeast UUG start
Cc1ccccc1NC(=O)CSc1nc2n(n1)CCCCC2	i	4.4	-11.6	-5.9	-5.5	2.8	3.4	-30.7
COc1ccc(/C=C/c2nc(-c3ccccc3)cc(=O)[nH]2)cc1	i	-6.6	26.6	-8.2	7.3	1.6	-1.8	nt
Cc1csc(SCC(=O)NC(=O)NC(C)C)n1	i	4.0	nt	0.0	-3.7	0.6	-1.7	nt
S=C(NCc1ccc(Cl)cc1)NCc1ccccn1	i	-2.6	-13.2	3.3	3.2	4.7	7.1	nt
CCn1cc2c(c1-c1cccc(C)c1)c(=O)n(C)c(=O)n2C	i	4.7	-4.4	-62.8	4.4	2.5	4.6	14.8
CC(C(=O)N1c2ccccc2CC1C)N1CCN(S(=O)(=O)c2ccccc2F)CC1 (stereo not given)	nt	nt	7.6	nt	nt	-1.4	1.4	-36.5
C=CCN(CC=C)C(=O)c1ccccc1NC(=O)c1ccccc1C	i	-3.0	-8.1	nt	-13.1	2.0	0.4	3.4
COCCn1c(SCc2cccc([N+](=O)[O-])c2)nc2ccccc2c1=O	i	1.9	6.4	17.3	6.7	-0.4	-6.1	-18.8
C/C=C/C(=O)NCCc1ccc(OC)c(OC)c1	i	-0.2	nt	-10.4	-2.8	2.4	6.4	nt
COc1ccc(C(CC(=O)Nc2nccs2)C(C)C)cc1 (stereo not given)	i	6.2	-7.0	-6.4	10.6	-4.7	-0.8	-8.9
CNCCCCOc1ccc(C(C)(C)C)cc1Cl	i	-1.3	66.4	18.5	0.1	-6.8	-4.6	-9.7
COc1ccc(-n2nnc3c(SCC(=O)OCc4ccccc4)ncnc32)cc1	i	-5.3	-21.0	nt	5.3	0.7	0.9	-25.7
CC1(C(=O)NS(=O)(=O)c2ccc3ccccc3c2)CCN1C(=O)Cc1ccc(-c2ccccc2)cc1 (stereo not given)	nt	nt	nt	5.0	nt	2.8	5.4	6.7
CC(C)(CO)NC(=S)NCc1ccco1	i	42.1	-2.7	6.4	27.1	-3.7	1.3	-14.7
COc1cccc(CC(=O)OC(C)C(=O)Nc2ccc(Cl)cn2)c1 (stereo not given)	i	nt	-11.5	13.1	nt	-1.8	3.9	0.4
COc1cccc(-n2c(SCC(=O)Nc3ccc4c(c3)CCC4)nc3ccccc3c2=O)c1	i	-14.3	0.6	4.5	-6.0	-11.3	-8.9	nt
COC(CNC(=O)c1ccc2c(c1)ncn2-c1cccc(F)c1)OC	i	1.7	-3.6	-65.5	-1.2	0.3	1.7	nt
CCOc1cc([N+](=O)[O-])cc(/C=N/NC(=O)c2c(-c3ccccc3)noc2C)c1O	i	12.7	7.7	nt	-7.3	3.2	0.7	-3.1
CC(=O)c1ccc(N=Nc2c(C)[nH]n(-c3ccccc3)c2=O)cc1	i	-7.5	31.1	19.7	8.0	6.3	-4.0	-10.6

Records listed above printed as active in Rce1 inh:
| molecule | Rce1 inh | HIV Env fusion | MT1-MMP act inh | MT1-MMP act inh RFP | Yeast UUG start |
| --- | --- | --- | --- | --- | --- |
| O=C(O)c1cc(-c2ccc(N3CCOCC3)cc2)nn1-c1ccc(F)cc1F | + | 18.6 | 2.1 | 4.4 | nt |

These rows are one share of the data; the hit share may differ from the screen's.
